# Screening data from PubChem BioAssay.
# Vaccinia stage = Vaccinia orthopox stage-specific inhibition; Vaccinia-infected cells, mCherry/Venus stage reporter fluorescence; stronger effect = lower value; some inactives read as strong as hits; activity change (mCherry), % (no concentration beside the values); 89,000 tested, 0.01% active; AID 1053133;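 active = mCherry past -33% and 40 or more points under the early reporter, replicates agreeing; inconclusive = past -33% without that gap or agreement; tested in A549 cells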;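 also: scaled between vehicle wells and reference inhibitor wells; 23 nL library stock went into each well; one replicate is shown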
# Vaccinia stage Venus = further read-out of Vaccinia stage, marked with its call; activity change (Venus), %; measured here: Venus reporter, other viral stage;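 negative = less Venus signal; first of two replicates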
# An asterisk follows results filed as active; ? = inconclusive; . = no result given. An excerpt, so the mix of outcomes need not match the whole.
Molecule | Vaccinia stage | Vaccinia stage Venus
C[C@@H]1CN([C@H](C)CO)S(=O)(=O)c2ccc(C#Cc3cccnc3)cc2O[C@@H]1CN(C)C(=O)CN(C)C | 10 | 8
C[C@@H]1CN([C@H](C)CO)C(=O)c2cccc(N(C)C)c2O[C@H]1CN(C)S(=O)(=O)c1cccs1 | 1 | -3
C[C@@H]1CN([C@H](C)CO)C(=O)c2cc(NS(=O)(=O)c3ccccc3)ccc2O[C@@H](C)CCCCO[C@@H]1CN(C)Cc1ccccc1 | ? | .
O=C(C[C@@H]1CC[C@H]2[C@@H](COC[C@@H](O)CN2Cc2cc(F)cc(F)c2)O1)NCc1cccc(F)c1 | 6 | -2
COc1ccc(NC(=O)N(C)C[C@@H]2Oc3ccc(NS(=O)(=O)c4cn(C)cn4)cc3C(=O)N([C@H](C)CO)C[C@@H]2C)cc1 | 13 | 4
CC(C)NC(=O)N[C@H]1CC[C@@H](CCNC(=O)C2CCCC2)O[C@@H]1CO | 17 | 6
COc1ccc(CN(C)C[C@H]2OCCCC[C@@H](C)Oc3ccc(NS(=O)(=O)c4ccc(C)cc4)cc3C(=O)N([C@H](C)CO)C[C@H]2C)cc1 | ? | .
C[C@@H]1CN([C@@H](C)CO)S(=O)(=O)c2ccc(-c3ccccc3F)cc2O[C@@H]1CN(C)CC1CC1 | -19 | -19
C[C@H](CO)N1C[C@H](C)[C@@H](CN(C)Cc2ccc3c(c2)OCO3)Oc2c(NC(=O)Nc3ccc4c(c3)OCO4)cccc2C1=O | 15 | 20
CC(C)NC(=O)N1CC[C@@H]2[C@H]1c1cc(Br)ccc1N(C)[C@H]2CO | -2 | 0
O=C(NCC[C@@H]1CC[C@@H](NC(=O)C2CCCCC2)[C@@H](CO)O1)Nc1ccc(Cl)cc1 | -6 | -10
O=C(NC1CCCCC1)N1CC(=O)N2[C@H](CO)[C@@H](c3ccc(-c4cccnc4)cc3)[C@@H]2C1 | 4 | 3
C#Cc1ccc([C@H]2C=C(C(=O)N3CCCCCCC3)O[C@@H](OCC)[C@@H]2CCCO)cc1 | -10 | -10
COc1ccc(S(=O)(=O)Nc2ccc3c(c2)CC(=O)N([C@H](C)CO)C[C@H](C)[C@@H](CN(C)C(=O)NC(C)C)O3)cc1 | -2 | 1
CCCNC(=O)N1CC2(CN(C(=O)Cc3cccnc3)C2)c2c([nH]c3cc(OC)ccc23)[C@@H]1CO | 6 | 3
O=C(NC1CCCC1)[C@H]1[C@H](CO)[C@H]2Cn3c(ccc(-c4ccncc4)c3=O)[C@H]2N1CCc1ccccc1 | -5 | 5
CC(C)NC(=O)N(C)C[C@H]1OCCCC[C@H](C)Oc2ccc(NC(=O)Nc3ccc(C(F)(F)F)cc3)cc2C(=O)N([C@@H](C)CO)C[C@H]1C | -3 | 0
CCCNC(=O)N(C)C[C@H]1Oc2cc(-c3ccccc3)ccc2S(=O)(=O)N([C@H](C)CO)C[C@@H]1C | -6 | -5
O=C(C[C@@H]1CC[C@@H]2[C@H](COC[C@@H](O)CN2Cc2ccccc2)O1)NCCc1ccccc1 | -10 | -13
C[C@@H]1CN([C@H](C)CO)C(=O)c2cc(C#Cc3ccccc3F)cnc2O[C@H]1CN(C)C(=O)C1CC1 | 6 | 0
C[C@@H]1CN([C@@H](C)CO)C(=O)c2cccc(NC(=O)Nc3ccc(C(F)(F)F)cc3)c2O[C@@H]1CN(C)S(=O)(=O)c1cccs1 | ? | .
COc1ccc2c3c([nH]c2c1)[C@H](CO)N(C(=O)Nc1c(C)noc1C)CC31CN(CC2CCOCC2)C1 | 5 | 8
CN(C)c1ccc2c(c1)[C@@H]1C[C@@H](CC(=O)NCc3ccccn3)O[C@H](CO)[C@@H]1O2 | 6 | 21
COc1ccccc1C#Cc1ccc([C@@H]2[C@H](CO)N3CCCCN(S(C)(=O)=O)C[C@@H]23)cc1 | -34 | -38
COC(=O)[C@@H]1[C@@H](CO)[C@@H]2Cn3c(ccc(-c4ccccc4F)c3=O)[C@H]1N2 | 7 | 6
C[C@@H]1CN([C@H](C)CO)C(=O)c2cc(C#CCN(C)C)cnc2O[C@H]1CN(C)Cc1ccc(C(=O)O)cc1 | 38 | 12
C[C@@H]1CN([C@@H](C)CO)C(=O)c2cccc(NC(=O)c3cnccn3)c2O[C@H]1CN(C)C(=O)NC1CCCCC1 | 18 | 14
CS(=O)(=O)N1CCCCN2[C@H](CO)[C@@H](c3ccc(C#Cc4ccccn4)cc3)[C@H]2C1 | 42 | 13
O=C(NC[C@H]1N[C@H](CO)[C@@H]1c1ccccc1)C1CCCC1 | 13 | 10
CCCNC(=O)N1CC2(CN(CC3CCOCC3)C2)c2c(n(C)c3cc(OC)ccc23)[C@@H]1CO | 12 | 0
C/C=C/c1ccc([C@H]2[C@@H](CNC(=O)C3CC3)N(C(=O)CC)[C@H]2CO)cc1 | 3 | 4
O=C(Cc1ccccn1)N1CCCCN2[C@H](CO)[C@@H](c3ccc(Br)cc3)[C@@H]2C1 | 1 | 0
O=C([C@@H]1[C@@H](CO)[C@@H]2Cn3c(cccc3=O)[C@@H]2N1Cc1ccncc1)N1CCCCC1 | 8 | 9
COc1ccc(S(=O)(=O)N(C)C[C@H]2Oc3ccc(NC(=O)Cc4cn(C)c5ccccc45)cc3C(=O)N([C@H](C)CO)C[C@@H]2C)cc1 | -11 | -10
C[C@H](CO)N1C[C@H](C)[C@@H](CN(C)C)Oc2ccc(NS(=O)(=O)c3cccs3)cc2C1=O | 1 | 8
C[C@H](CO)N1C[C@H](C)[C@H](CN(C)Cc2cncnc2)Oc2ncc(-c3cccc(F)c3)cc2C1=O | 24 | 14
CCCNC(=O)N1[C@H](C#N)[C@H](c2ccc(C3=CCCCC3)cc2)[C@@H]1CO | ? | .
CC(C)NC(=O)N(C)C[C@H]1Oc2c(NC(=O)C3CC3)cccc2C(=O)N([C@H](C)CO)C[C@H]1C | 13 | 6
C[C@H]1CN([C@@H](C)CO)C(=O)c2cc(-c3cccnc3)cnc2O[C@H]1CN(C)C(=O)C1CCOCC1 | 33 | 10
CO[C@H]1CN(C)C(=O)c2cc(NC(C)=O)ccc2OC[C@H](C)N(CCc2ccccc2)C[C@@H]1C | -16 | 2
COC(=O)N(C)C[C@@H]1OCc2ccccc2-c2c(n(C)c3ccccc23)C(=O)N([C@@H](C)CO)C[C@H]1C | 11 | 14
C[C@@H]1CN([C@@H](C)CO)C(=O)c2cc(NC(=O)CCCN(C)C)ccc2O[C@@H](C)CCCCO[C@@H]1CN(C)C(=O)Nc1ccccc1 | 22 | 14
O=C(C[C@@H]1CC[C@@H](NC(=O)c2ccc3c(c2)OCO3)[C@@H](CO)O1)NCc1ccc(Cl)cc1 | 7 | 15
C[C@@H]1CN([C@H](C)CO)S(=O)(=O)c2ccc(C#Cc3ccccc3)cc2O[C@@H]1CN(C)C(=O)CN(C)C | ? | .
N#C[C@@H]1[C@@H](c2ccc(-c3ccncc3)cc2)[C@@H](CO)N1C(=O)C1CCCCC1 | 8 | 3
COc1ccccc1NC(=O)N(C)C[C@@H]1Oc2ncc(C#CCC(C)C)cc2C(=O)N([C@H](C)CO)C[C@H]1C | -23 | -22
CO[C@H]1CN(C)C(=O)c2cc(NC(=O)NC3CCCCC3)ccc2OC[C@H](C)N(CC2CCOCC2)C[C@@H]1C | -10 | -19
C/C=C/c1ccc([C@H]2[C@H](CO)N3CCCCN(C(=O)Cc4ccncc4)C[C@@H]23)cc1 | -2 | 4
O=C(c1cccc(F)c1)N1CC[C@H]2[C@H](CO)Nc3ccc(C#Cc4ccccc4)cc3[C@H]21 | -34 | -22
Cc1ccc(S(=O)(=O)N(C)C[C@@H]2OCCCC[C@H](C)Oc3ccc(NC(=O)Nc4ccc5c(c4)OCO5)cc3C(=O)N([C@H](C)CO)C[C@H]2C)cc1 | 13 | 4

# Further entries follow.
Molecule | Vaccinia stage | Vaccinia stage Venus
C[C@@H]1CN([C@H](C)CO)C(=O)c2cc(NC(=O)CCCN(C)C)ccc2O[C@H]1CN(C)Cc1ccc(C(=O)O)cc1 | 14 | 16
C[C@H](CO)N1C[C@H](C)[C@H](CN(C)C(=O)CN2CCOCC2)Oc2ncc(C3=CCCCC3)cc2C1=O | 6 | -5
C[C@@H]1CCCCO[C@H](CN(C)C(=O)Cc2ccccc2)[C@@H](C)CN([C@H](C)CO)C(=O)c2cc(NS(C)(=O)=O)ccc2O1 | 3 | 2
O=C(C[C@H]1CC[C@@H](NC(=O)CN2CCOCC2)[C@@H](CO)O1)NCCc1ccncc1 | 11 | 18
CC(C)NC(=O)Nc1ccc2c(c1)C(=O)N([C@H](C)CO)C[C@@H](C)[C@H](CN(C)C(=O)c1ccccc1)OCCCC[C@@H](C)O2 | 4 | 8
O=C(C[C@H]1C[C@H]2c3cc(NC(=O)C4CCC4)ccc3O[C@H]2[C@H](CO)O1)NCC(F)(F)F | 24 | 12
C/C=C/c1cnc2c(c1)C(=O)N([C@@H](C)CO)C[C@H](C)[C@@H](CN(C)C(=O)Nc1ccc(F)cc1)O2 | 11 | -1
CCC(=O)N1CC2(C1)[C@H](c1ccccc1)[C@@H](CO)N2C(=O)c1ccncc1 | 15 | 13
O=C1CN(S(=O)(=O)c2ccccc2)C[C@@H]2[C@H](c3ccc(C#Cc4ccccc4)cc3)[C@H](CO)N12 | ? | .
C[C@H]1CN([C@@H](C)CO)C(=O)c2cc(NC(=O)Nc3ccc(C(F)(F)F)cc3)ccc2O[C@@H]1CN(C)Cc1ccc(C(=O)O)cc1 | 12 | 7

# Copied from the entries so far for reference:
Molecule | Vaccinia stage | Vaccinia stage Venus
O=C(c1cccc(F)c1)N1CC[C@H]2[C@H](CO)Nc3ccc(C#Cc4ccccc4)cc3[C@H]21 | -34 | -22
Cc1ccc(S(=O)(=O)N(C)C[C@@H]2OCCCC[C@H](C)Oc3ccc(NC(=O)Nc4ccc5c(c4)OCO5)cc3C(=O)N([C@H](C)CO)C[C@H]2C)cc1 | 13 | 4
C[C@@H]1CN([C@H](C)CO)C(=O)c2cc(NC(=O)CCCN(C)C)ccc2O[C@H]1CN(C)Cc1ccc(C(=O)O)cc1 | 14 | 16
C[C@H](CO)N1C[C@H](C)[C@H](CN(C)C(=O)CN2CCOCC2)Oc2ncc(C3=CCCCC3)cc2C1=O | 6 | -5
C[C@@H]1CCCCO[C@H](CN(C)C(=O)Cc2ccccc2)[C@@H](C)CN([C@H](C)CO)C(=O)c2cc(NS(C)(=O)=O)ccc2O1 | 3 | 2
O=C(C[C@H]1CC[C@@H](NC(=O)CN2CCOCC2)[C@@H](CO)O1)NCCc1ccncc1 | 11 | 18
CC(C)NC(=O)Nc1ccc2c(c1)C(=O)N([C@H](C)CO)C[C@@H](C)[C@H](CN(C)C(=O)c1ccccc1)OCCCC[C@@H](C)O2 | 4 | 8
O=C(C[C@H]1C[C@H]2c3cc(NC(=O)C4CCC4)ccc3O[C@H]2[C@H](CO)O1)NCC(F)(F)F | 24 | 12
C/C=C/c1cnc2c(c1)C(=O)N([C@@H](C)CO)C[C@H](C)[C@@H](CN(C)C(=O)Nc1ccc(F)cc1)O2 | 11 | -1
CCC(=O)N1CC2(C1)[C@H](c1ccccc1)[C@@H](CO)N2C(=O)c1ccncc1 | 15 | 13
O=C1CN(S(=O)(=O)c2ccccc2)C[C@@H]2[C@H](c3ccc(C#Cc4ccccc4)cc3)[C@H](CO)N12 | ? | .

# (cont.)
Molecule | Vaccinia stage | Vaccinia stage Venus
C[C@H]1CN([C@@H](C)CO)C(=O)c2cc(NS(=O)(=O)c3ccccc3)ccc2O[C@H]1CN(C)S(C)(=O)=O | -3 | -5
CCCC(=O)Nc1ccc2c(c1)C(=O)N(C)C[C@@H](OC)[C@H](C)CN(CCC)[C@@H](C)CO2 | 3 | -1
C[C@H]1CN([C@@H](C)CO)C(=O)Cc2cc(NC(=O)NC3CCCCC3)ccc2O[C@H]1CN(C)S(=O)(=O)c1ccc(F)cc1 | -20 | -10
COc1ccc(S(=O)(=O)N(C)C[C@@H]2OCCCC[C@@H](C)Oc3ccc(NS(=O)(=O)c4ccc(C)cc4)cc3C(=O)N([C@H](C)CO)C[C@@H]2C)cc1 | -4 | -10
O=C(N[C@@H]1CC[C@H](CC(=O)N2CCOCC2)O[C@H]1CO)c1ccccn1 | 11 | 7
CCCNC(=O)[C@@H]1[C@@H](CO)[C@@H]2Cn3c(cccc3=O)[C@@H]2N1CC | 17 | 28
CNC(=O)C[C@@H]1CC[C@H]2[C@H](COc3ccc(NC(=O)Nc4ccccc4OC)cc3C(=O)N2C)O1 | 0 | 5
CNC[C@H]1Oc2ccc(NC(=O)Nc3ccccc3)cc2C(=O)N([C@H](C)CO)C[C@@H]1C | 4 | -1
CCC(=O)N(C)C[C@@H]1Oc2cc(-c3cccc(OC)c3)ccc2S(=O)(=O)N([C@H](C)CO)C[C@H]1C | 13 | -2
C[C@H](CO)N1C[C@H](C)[C@H](CN(C)CC2CCOCC2)Oc2cc(C#C[C@@H](C)O)ccc2S1(=O)=O | 3 | 0
C=CCNC(=O)[C@@H]1[C@H]2C(=O)O[C@H](c3ccccc3)[C@H](c3ccccc3)N2[C@H](c2ccc(OCCO)cc2)[C@@]12C(=O)Nc1ccc(C#Cc3ccc(OC)cc3)cc12 | 3 | -2
COc1ccc(NC(=O)N[C@H]2CC[C@@H](CCn3cc(-c4ccc(F)cc4)nn3)O[C@H]2CO)cc1 | -10 | -4
CN(C)CC(=O)Nc1ccc2c(c1)[C@@H]1C[C@H](CC(=O)NCc3ccccc3)O[C@@H](CO)[C@@H]1O2 | 8 | 3
Cc1ccc(S(=O)(=O)Nc2ccc3c(c2)C(=O)N([C@H](C)CO)C[C@@H](C)[C@@H](CN(C)S(=O)(=O)c2ccc(F)cc2)O3)cc1 | -13 | -12
O=C(C[C@H]1C=C[C@H](NC(=O)Nc2ccc3c(c2)OCO3)[C@H](CO)O1)NCc1ccc2c(c1)OCO2 | 3 | 2
COc1ccc(S(=O)(=O)Nc2ccc3c(c2)C(=O)N([C@@H](C)CO)C[C@@H](C)[C@H](CN(C)S(=O)(=O)c2cccs2)OCCCC[C@H](C)O3)cc1 | -25 | -17
CC=Cc1ccc2n(c1=O)C[C@@H]1[C@@H](CO)[C@H](C(=O)Nc3ccc(-c4ccccc4)cc3)[C@H]2N1C(=O)CC (mixture of isomers) | -19 | -21
